# Source: PubChem (Johns Hopkins Ion Channel Center)
# KCNQ2 inh: KCNQ2 potassium channel inhibitors, primary screen, cell-based, CHO-K1, FluxOR thallium flux, B-score (AID 2156) | O88943 | 20 min; active compounds read low; only compounds with negative scores are shown here; some inactives read as strong as hits | B-score at 10 µM | 310,000 compounds, 1.1% hits;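 active means fluorescence ratio B-score at most minus 3 library SDs, with starting brightness B-score within 2 library SDs, cut at about -5.5 in these data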
# Target sequence (O88943 whole entry, looked up): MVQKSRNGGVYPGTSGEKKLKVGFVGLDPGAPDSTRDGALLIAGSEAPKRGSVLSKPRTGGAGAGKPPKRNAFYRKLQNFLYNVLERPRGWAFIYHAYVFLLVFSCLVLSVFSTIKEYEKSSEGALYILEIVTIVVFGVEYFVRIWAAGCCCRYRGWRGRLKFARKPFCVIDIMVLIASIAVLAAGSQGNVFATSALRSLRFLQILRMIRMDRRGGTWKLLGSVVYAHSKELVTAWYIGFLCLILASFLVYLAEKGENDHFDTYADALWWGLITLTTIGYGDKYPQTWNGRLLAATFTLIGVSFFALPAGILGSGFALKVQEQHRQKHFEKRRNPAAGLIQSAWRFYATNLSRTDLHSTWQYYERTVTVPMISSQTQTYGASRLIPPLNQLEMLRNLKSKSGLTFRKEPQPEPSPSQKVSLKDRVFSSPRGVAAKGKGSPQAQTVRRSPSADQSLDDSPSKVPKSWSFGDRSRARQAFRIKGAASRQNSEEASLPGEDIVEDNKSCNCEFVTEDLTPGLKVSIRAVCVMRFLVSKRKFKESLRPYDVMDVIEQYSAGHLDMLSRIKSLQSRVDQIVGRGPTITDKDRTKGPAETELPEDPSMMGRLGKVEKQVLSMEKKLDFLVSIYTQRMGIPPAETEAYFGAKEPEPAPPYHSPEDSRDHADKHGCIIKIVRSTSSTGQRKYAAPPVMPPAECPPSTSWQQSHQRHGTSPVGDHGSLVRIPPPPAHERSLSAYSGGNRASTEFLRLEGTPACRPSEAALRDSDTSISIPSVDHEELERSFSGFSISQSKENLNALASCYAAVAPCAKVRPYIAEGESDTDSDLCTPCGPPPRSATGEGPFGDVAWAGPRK
# KCNQ2 inh baseline: second read-out of KCNQ2 inh, no call of its own (marks repeat the call); B-score; measured here: initial fluorescence intensity artifact check;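 brightness before thallium and not channel activity; 0 = typical well and far values either way flag optical interference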
# Active calls of the source: *; i = inactive. The list is partial; count on the stated rates, not on these rows.
SMILES,KCNQ2 inh,KCNQ2 inh baseline
COc1cccc(Nc2nc3ccccc3nc2NS(=O)(=O)c2cccs2)c1,i,-1.2
CCNC(=O)COC(=O)COc1ccc(Cl)cc1C,i,0.55
CCOC(=O)N1CCN(C(=O)C2CCCN(c3ncnc4c3nc3n4CCCCC3)C2)CC1 (configuration not stated),i,0.74
CCOc1ncccc1C(=O)Nc1c(C)n(C)n(-c2ccccc2)c1=O,i,-1.6
CCOC(=O)c1c(C)oc2ccc(OCC(N)=O)cc12,i,3.7
CC1(OC(=O)c2cccs2)C(=O)C=C2C=C(c3ccc(C#N)cc3)OC=C2C1=O (configuration not stated),i,-0.8
COc1ccc2[nH]c3c(c2c1)CN(C)CC3,i,0.05
Cc1cc(OC(C)C(=O)N(Cc2ccco2)C2CCS(=O)(=O)C2)ccc1Cl (configuration not stated),i,-0.35
CCc1ccccc1NC(=O)CSC1=C(C#N)C(c2ccc(O)c(OC)c2)C2=C(CCCC2=O)N1 (configuration not stated),i,1.7
C=CCCC(=O)N(C)CCO,i,-0.4
Cc1[nH]c(=O)[nH]c(=O)c1NS(=O)(=O)c1ccc2c(c1)CCCC2,i,-2
CCC1(c2ccc(F)cc2)NC(=O)NC1=O (configuration not stated),i,0.35
COc1cc(-c2noc(C)c2C#CC2(O)CCCCC2)cc(OC)c1OC,i,0.01
COc1cc(CNCCNCC(C)O)ccc1OCc1ccc(Cl)nc1 (configuration not stated),i,0.4
CC1CCN(S(=O)(=O)c2cn(CC(=O)N3CCN(c4cccc(C(F)(F)F)c4)CC3)cn2)CC1,i,1.2
CCn1nc(C(=O)Nc2nc3ccc(C)cc3s2)c2ccccc2c1=O,i,0.4
COc1cc(OC)c(C2N(c3ccccn3)C(=O)C3CCCN32)cc1OC (configuration not stated),i,1.4
Cc1cccc(C(C)C)c1NC(=O)c1cccnc1,i,0.03
O=C(NCc1nc(-c2ccccc2)no1)c1cccs1,i,0.42
COc1ccc(-c2cn3cccnc3n2)cc1NC(=O)c1cc(OC)c(OC)c(OC)c1,i,-0.29
CCOc1ccc(Br)cc1S(=O)(=O)NCc1ccc(S(N)(=O)=O)cc1,i,-0.69
COc1cc(NS(=O)(=O)c2ccc(NC(=S)NC(=O)/C=C/c3ccco3)cc2)ncn1,i,0.64
O=C(CSc1nnc(-c2cccs2)o1)N1CCOCC1,i,1.6
O=C1NCCCc2c1oc1cc(Br)c(O)c(Br)c21,i,0.43
O=C(NCc1nc(-c2ccccc2)no1)c1ccc2c(c1)OCO2,i,0.94
COC(=O)c1ccccc1NC(=O)COC(=O)CSCC(=O)N1CCOCC1,i,-1.3
CN(C)c1cc[n+](CC(=O)Nc2ccc(Cl)c([N+](=O)[O-])c2)cc1,i,0.93
CC(C)c1nnc(SCC(=O)NCc2ccc3c(c2)OCO3)n1C,i,-1.4
COc1ccc(NCC(=O)Nc2ccccc2C#N)cc1Cl,i,-0.22
COc1ccc2c(C)c(C(=O)N3CCN(Cc4ccccc4)CC3)oc2c1,-6.2*,0.43*
CCOc1ccc(N2CC(C(=O)NC3CCCC3)CC2=O)cc1 (configuration not stated),i,0.26
Cc1cc(N2CCOCC2)c(F)cc1C(=O)c1ccccc1,i,-0.24
O=C(CN1CCCCCC1)Nc1ccc(S(=O)(=O)N2CCOCC2)cc1,i,0.25
Cc1cccc(C)c1OCc1nnc(SCC(=O)NCCc2ccccc2)o1,i,0.32
Cc1noc(C)c1S(=O)(=O)N1CCCC(C(=O)NCCc2ccc(Cl)cc2)C1 (configuration not stated),i,0.02
COC(=O)c1sccc1NC(=O)CC1C(=O)NCCN1C(=O)Nc1cc(Cl)ccc1OC (configuration not stated),i,0.36
Cc1ccc(C(=O)CSc2nnc(-c3ccccc3)o2)cc1,i,0.03
O=c1oc(-c2ccc(Cl)c(Cl)c2)nn1-c1ccc(C(F)(F)F)cn1,i,0.04
COc1ccc(N(CC(=O)N2CCc3ccccc3C2)S(C)(=O)=O)cc1,i,-0.7
CCN1CCN(Cc2ccc(NC(=O)c3ccc(C)c(NC(=O)c4cccc5[nH]ccc45)c3)cc2C(F)(F)F)CC1,i,1.2
COc1ccc(Cc2nnc(SCC(=O)NCc3ccco3)o2)cc1,i,1.4
O=C(CSc1ncnc2c1nnn2Cc1ccccc1F)N1CCN(c2ccccc2)CC1,i,-0.02
CC(C)Cn1cc(C(=O)N2CCOCC2)c2c3ccccc3n(C)c2c1=O,i,-1.3
CCc1noc(C)c1C(=O)Nc1ccc(F)c(F)c1F,i,1.2
O=C(CCN1C(=O)c2cccc3cccc(c23)C1=O)N1CCOCC1,i,-1.5
COC(=O)c1nnn(CC(=O)NC(=O)Nc2ccccc2)c1C(=O)OC,i,-0.62
O=Cc1ccccc1OCCOc1ccccc1C=O,i,2.8
CCOC(=O)NC(=O)/C(C#N)=C\c1ccccc1,i,0.09
COc1ccc(-c2cc3ccccc3n2CC(O)CNCCO)cc1 (configuration not stated),i,-0.1
Cc1ccc(OCC(=O)N2CCN(C(=O)c3cccs3)CC2)cc1,i,1.1
CCOC(=O)Cn1c(=NC(=O)C(C)(C)C)sc2cc([N+](=O)[O-])ccc21,i,-0.07
COc1ccc(-c2cc(C(=O)O)c3c(C)nn(-c4ccccn4)c3n2)cc1,i,-0.95
CN(CCCNC(=O)c1nn(C)c2c1CS(=O)(=O)c1ccccc1-2)Cc1ccccc1,i,0.25
COCc1[nH]nc2c1C(C1C=CCCC1)C(C#N)=C(N)O2 (configuration not stated),i,0.14
CCCc1cc(C(=O)N2CCCC(N3CCN(c4ccc(F)cc4)CC3)C2)no1 (configuration not stated),i,-1
FC(F)(F)c1cccc(NC(=S)NCCN2CCOCC2)c1,i,-0.09
C=CCn1c(SCC(=O)OCC)nc2cc(C(=O)NCc3ccco3)ccc2c1=O,i,-0.98
CCC(C)[C@H](NC(=O)NC1CCCc2ccccc21)C(=O)OC (some centres not stated),i,-1
Clc1cc(Br)ccc1NCc1cccnc1,i,-0.72
OC1(c2ccccc2F)CCN(Cc2nnnn2CCc2ccccc2)CC1,i,1.4
# Next section
SMILES,KCNQ2 inh,KCNQ2 inh baseline
COc1cc(C(=O)NCC(=O)Nc2ccc(F)c(F)c2)ccc1OCC(=O)N1CCOCC1,i,0.02
O=C1CC(N(Cc2ccc3c(c2)OCO3)C(=O)Nc2ccc(F)cc2)C(=O)N1c1ccccc1 (configuration not stated),i,0.03
COc1cc(SC)ccc1C(=O)Nc1nc(C)cs1,i,2.7
CSc1nc(C)cc(OCNC(=O)c2cccs2)n1,i,1.6
CCc1[nH]c(=S)c(C#N)c(-c2ccccc2)c1C(=O)OC,i,-1.3
C=CCN(c1ccc(C(=O)NC(C)C)cc1)S(C)(=O)=O,i,0.02
CSc1nc(-c2ccc(Cl)cc2)c(C#N)c(=O)[nH]1,i,1.2
Nc1nnc(CCc2ccccc2)s1,i,-0.01
Cc1ccccc1OCCC(=O)OCC(=O)Nc1ccc2[nH]c(=O)[nH]c2c1,i,0.26
CCN(CC)c1ccc(NC(=O)CCNC(=O)c2ccco2)cc1,i,0.95
N#Cc1cnc(Sc2ccccc2)nc1,i,0.83
C=CCn1c(C)cc(C(=O)CSc2nc3ccccc3[nH]2)c1C,-7.5*,0.96*
Cc1ccccc1NC(=O)CN1CCN(C)CC1,i,0.04
Cc1nccn1-c1ccc(C=O)cc1,i,0.49
Cc1ccc(-c2cc(C(=O)N/N=C/c3c(C)nn(C)c3C)c3ccccc3n2)c(C)c1,i,0.33
c1ccc2c(c1)nc(NCc1ccc3c(c1)OCO3)n2CCN1CCOCC1,i,0.63
CC1CCCC(NC(=O)COC(=O)CCc2ccccc2)C1C (configuration not stated),i,0.22
COc1ccc(CC(=O)N2CCCC2)c(OC)c1,i,-1.7
CS(=O)(=O)N(CC(=O)NCc1ccccc1Cl)c1cccc([N+](=O)[O-])c1,i,0.09
CC(=NCCc1ccccc1)C1=C(O)CSC1=O,i,0.19
COc1cccc(OC)c1C(=O)N1CCN(c2c(Cc3ccccc3)c(C)nc3ncnn23)CC1,i,-0.68
C[N+]1=C(/C=C/Nc2ccccc2Cl)C(C)(C)c2ccccc21,i,-0.38
O=C(CCn1c2c(c3ccccc31)CCCC2)NNC(=O)c1cccc([N+](=O)[O-])c1,i,2.9
COc1ccc(-c2cc3nc(C)c(CCC(=O)NC(C)CCc4ccco4)c(C)n3n2)c(OC)c1 (configuration not stated),i,-1.2
Cc1ccc(Cl)cc1NC(=O)N(C)CCO,i,-2.9
Cc1cc(F)ccc1N1CCC(N2CCN(C(C)C)C(CCO)C2)CC1 (configuration not stated),i,-3.4
CCc1cccc(NS(=O)(=O)c2ccc3c(c2)NC(=O)C(C)S3)c1 (configuration not stated),i,-1
COc1ccccc1N1CCN(CC(=O)c2c(N)n(C)c(=O)n(C)c2=O)CC1,i,1.6
O=C(NNC(=O)C1CC(c2cccs2)=NO1)Nc1ccc(Cl)cc1 (configuration not stated),i,0.44
O=C(CN1C(=O)NC2(CCCc3ccccc32)C1=O)N1CCCCC1 (configuration not stated),i,-0.21
Cc1cccc(NCC(=O)N/N=C/c2cccc(Br)c2)c1,i,-2.6
CSc1ccccc1NC(=O)N1CCC(CO)(CC2CCCCO2)CC1 (configuration not stated),i,-0.34
Cc1cc(C)nc(/N=C(/NC(=O)Nc2cccc(Cl)c2)Nc2ccccc2)n1,-5.8*,-1.3*
Cc1noc(C)c1C(=O)N1CCCC(C(=O)c2cccc(OC(C)C)c2)C1 (configuration not stated),i,-0.85
Cc1c(Br)c([N+](=O)[O-])nn1CC(=O)N1CCc2ccccc2C1,i,0.25
Cc1ccc(Cn2c(SCCN3CCOCC3)nc3c2c(=O)n(C)c(=O)n3C)cc1,i,-0.39
CN1N=C2c3ccccc3CCCC2C1c1ccc(F)cc1 (configuration not stated),i,-0.4
CC1CN(C2CCN(C(=O)c3ccccc3)CC2)CC(C)O1 (configuration not stated),i,0.09
O=C(NNC(=O)C1CCCO1)c1ccccc1Cl (configuration not stated),i,-0.17
CC1CCCC(C)N1C(=O)COC(=O)Cc1c[nH]c2ccccc12 (configuration not stated),i,1.3
Cc1c(C(=O)O)nnn1-c1ccccc1,i,1.2
Cc1cccc(-n2cnc(C(=O)NNC(=S)Nc3ccc(Cl)cc3)c2)n1,i,-0.26
COc1ccc(C(CC(=O)O)NC(=O)c2ccco2)cc1OC (configuration not stated),i,0.46
O=C(Nc1c(C(=O)Nc2ccc3c(c2)OCCO3)cnn1-c1ccccc1Cl)c1ccco1,i,-1.7
O=C1CCCC(=O)C1CS(=O)(=O)c1ccccc1,i,1.6
CSc1ccc(OC2CCN(Cc3ccccc3)CC2)cc1,i,-0.04
COc1ccc(Nc2nc3c(C)cccc3cc2C#N)c(OC)c1,i,1.9
O=C(CCc1nnc(-c2ccc3c(c2)OCO3)o1)NC(c1ccccn1)C(F)(F)F (configuration not stated),i,0.44

# Shown with values ahead of the structure: part of the list above
KCNQ2 inh | KCNQ2 inh baseline | canonical_smiles
i | -0.68 | COc1cccc(OC)c1C(=O)N1CCN(c2c(Cc3ccccc3)c(C)nc3ncnn23)CC1
i | 1.6 | O=C1CCCC(=O)C1CS(=O)(=O)c1ccccc1
i | -2.6 | Cc1cccc(NCC(=O)N/N=C/c2cccc(Br)c2)c1
i | -1 | CCc1cccc(NS(=O)(=O)c2ccc3c(c2)NC(=O)C(C)S3)c1 (configuration not stated)
i | -0.39 | Cc1ccc(Cn2c(SCCN3CCOCC3)nc3c2c(=O)n(C)c(=O)n3C)cc1

# Compounds shown so far that have a nitro group on carbon (5):
SMILES,KCNQ2 inh,KCNQ2 inh baseline
CN(C)c1cc[n+](CC(=O)Nc2ccc(Cl)c([N+](=O)[O-])c2)cc1,i,0.93
CCOC(=O)Cn1c(=NC(=O)C(C)(C)C)sc2cc([N+](=O)[O-])ccc21,i,-0.07
CS(=O)(=O)N(CC(=O)NCc1ccccc1Cl)c1cccc([N+](=O)[O-])c1,i,0.09
O=C(CCn1c2c(c3ccccc31)CCCC2)NNC(=O)c1cccc([N+](=O)[O-])c1,i,2.9
Cc1c(Br)c([N+](=O)[O-])nn1CC(=O)N1CCc2ccccc2C1,i,0.25

# Of the compounds above, these contain a COOH group:
SMILES,KCNQ2 inh,KCNQ2 inh baseline
COc1ccc(-c2cc(C(=O)O)c3c(C)nn(-c4ccccn4)c3n2)cc1,i,-0.95
Cc1c(C(=O)O)nnn1-c1ccccc1,i,1.2
COc1ccc(C(CC(=O)O)NC(=O)c2ccco2)cc1OC (configuration not stated),i,0.46

# More results
SMILES,KCNQ2 inh,KCNQ2 inh baseline
Cc1ccc(S(=O)(=O)N2CCCCC2)cc1NC(=O)COC(=O)c1c(F)cccc1F,i,-0.08
Cc1ccc(N(C)S(=O)(=O)c2cccc(C(=O)Nc3nc4ccccc4[nH]3)c2)cc1,i,0.8
COc1cc(OC)cc(C(=O)n2nc(C)cc2C)c1,i,0.39
CCCc1cc(=O)oc2cc(OCC(=O)Nc3ccc(S(N)(=O)=O)cc3)ccc12,i,-0.89
Cc1noc(NS(=O)(=O)c2ccc(NC(=O)CCn3c(=O)oc4ccccc43)cc2)c1C,i,0.48
Cn1c(=O)c2cc(NCc3ccccc3)nnc2n(C)c1=O,i,-1.9
CC1CCC(C(C)C)C(OC(=O)Cn2c(-c3ccc(Cl)cc3)[n+](C)c3ccccc32)C1 (configuration not stated),-6.7*,-2.2*
Cc1cccc(C)c1NC(=O)CN(C)C(=O)c1cccc(S(=O)(=O)N2CCN(c3ccc(F)cc3)CC2)c1,i,0.06
COc1ccccc1N1CCN(C(=O)c2noc(C(C)C)c2[N+](=O)[O-])CC1,i,0.82
Cc1ccc(NC(=O)CN(c2ccc(Cl)cc2)S(=O)(=O)c2cc([N+](=O)[O-])ccc2Cl)c(C)c1,-7.9*,-2*

# Single values from the entries so far:
# COc1cccc(OC)c1C(=O)N1CCN(c2c(Cc3ccccc3)c(C)nc3ncnn23)CC1 in KCNQ2 inh baseline is entered as -0.68
# CSc1ccc(OC2CCN(Cc3ccccc3)CC2)cc1 in KCNQ2 inh baseline is entered as -0.04
# CN1N=C2c3ccccc3CCCC2C1c1ccc(F)cc1 (configuration not stated) in KCNQ2 inh baseline is entered as -0.4
